# Vaccinia stage – blocks a specific stage of Vaccinia orthopoxvirus infection, primary screen, cell-based, single point. Vaccinia-infected cells, mCherry/Venus stage reporter fluorescence; hits give low values; some inactives read as strong as hits. activity change (mCherry), % (concentration not given with the values). 89,000 tested, 0.01% active;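 active = mCherry past -33% and 40 or more points under the early reporter, replicates agreeing; inconclusive = past -33% without that gap or agreement; tested in A549 cells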;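 also: scaled between vehicle wells and reference inhibitor wells; 23 nL library stock went into each well; one replicate is shown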
# Vaccinia stage Venus – further read-out of Vaccinia stage, marked with its call; activity change (Venus), %; measured here: Venus reporter, other viral stage;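 negative = less Venus signal; first of two replicates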
# An asterisk follows results filed as active; u = inconclusive; x = no result given; & = joins results of further samples. These rows are one share of the data; count on the stated rates, not on these rows.
SMILES,Vaccinia stage,Vaccinia stage Venus
CN(C)C(=O)c1ccc(-c2ccc(C3[C@@H]4CN(C(=O)CN5CCOCC5)C[C@H]3N4)cc2)cc1 (stereo partly drawn),14&11,16&12
CO[C@H]1CN(C)C(=O)c2ccc(NS(=O)(=O)c3ccccc3C)cc2OC[C@H](C)NC[C@H]1C,3,3
Cc1ccc(S(=O)(=O)N(C)C[C@@H]2Oc3cc(C#Cc4ccncc4)ccc3S(=O)(=O)N([C@H](C)CO)C[C@H]2C)cc1,-12,-5
COc1ccc(NC(=O)N(C)C[C@@H]2Oc3cc(-c4ccncc4)ccc3S(=O)(=O)N([C@@H](C)CO)C[C@@H]2C)cc1,24,10
C[C@H](CO)N1C[C@H](C)[C@@H](CN(C)S(=O)(=O)c2ccccc2)Oc2ccc(NC(=O)Cc3ccccc3)cc2C1=O,5,-1
C[C@H]1CN([C@@H](C)CO)C(=O)c2cc(NC(=O)Cc3ccccc3)ccc2O[C@H]1CN(C)C(=O)Nc1ccc(F)cc1,22,15
Cc1cccc(S(=O)(=O)N2C[C@H](O)COC[C@@H]3O[C@@H](CC(=O)Nc4ccccc4)CC[C@H]32)c1,-4,-1
CC(C)NC(=O)N1[C@H](CO)[C@@H]2c3ccccc3N(C(=O)C3CC3)C[C@@H]21,-5,7
C[C@@H]1CCCCO[C@@H](CN(C)CC2CCCCC2)[C@H](C)CN([C@H](C)CO)C(=O)c2cc(NC(=O)Nc3cccc4ccccc34)ccc2O1,u,x
CCCC(=O)Nc1ccc2c(c1)C(=O)N(C)C[C@@H](OC)[C@@H](C)CN(C(=O)c1cccnc1)[C@H](C)CO2,14,10
CCC(=O)N[C@H]1CC[C@H](CC(=O)OC)O[C@H]1CO,8,-1
COc1ccccc1NC(=O)N[C@@H]1CC[C@@H](CCn2cc(-c3ccccc3)nn2)O[C@H]1CO,-7,-9
C[C@@H]1CN([C@H](C)CO)C(=O)c2cc(NC(=O)Cc3ccccc3)ccc2O[C@@H]1CN(C)S(=O)(=O)c1ccc(F)cc1,-6,-4
C[C@H](NC(=O)C[C@H]1CC[C@H]2[C@@H](COC[C@@H](O)CN2C(=O)Nc2cc(Cl)cc(Cl)c2)O1)c1ccccc1,u,x
O=C([C@H]1[C@H](CO)[C@H]2Cn3c(ccc(-c4cccnc4)c3=O)[C@@H]1N2Cc1ccncc1)N1CCOCC1,7,6
COc1ccc(NC(=O)N(C)C[C@@H]2Oc3c(NC(=O)c4ccncc4)cccc3C(=O)N([C@H](C)CO)C[C@H]2C)cc1,19,5
CCc1nc(N2[C@H](CO)[C@H](c3ccccc3-c3ccccc3F)[C@@H]2C#N)sc1C,15,6
COc1ccccc1C(=O)Nc1ccc2c(c1)C(=O)N(C)C[C@H](OC)[C@@H](C)CN[C@@H](C)CO2,1,0
CN(C)c1ccc2c(c1)[C@H]1C[C@@H](CC(=O)NCc3cccc(F)c3)O[C@@H](CO)[C@H]1O2,20,17
CO[C@@H]1CN(C)C(=O)c2ccc(NS(C)(=O)=O)cc2OC[C@@H](C)N(Cc2nccs2)C[C@@H]1C,-1,7
O=C(C[C@H]1CC[C@@H]2[C@H](COC[C@H](O)CN2C(=O)c2cccnc2)O1)NCc1ccc(-c2ccccc2)cc1,7,5
O=C(C[C@H]1C=C[C@@H](NC(=O)C2CC2)[C@@H](CO)O1)NCC1CC1,14,7
C[C@H]1CN([C@@H](C)CO)C(=O)c2cc(NC(=O)Nc3ccc(C(F)(F)F)cc3)ccc2O[C@@H]1CN(C)S(=O)(=O)c1ccc(Cl)cc1,-26,-21
COc1ccc(S(=O)(=O)Nc2ccc3c(c2)CC(=O)N([C@@H](C)CO)C[C@H](C)[C@H](CN(C)C(=O)NC(C)C)O3)cc1,0,0
CO[C@@H]1CN(C)C(=O)c2ccc(NS(C)(=O)=O)cc2OC[C@H](C)N(C(=O)C2CC2)C[C@H]1C,12,6
SMILES,Vaccinia stage,Vaccinia stage Venus
O=C(C[C@@H]1C[C@H]2c3cc(NC(=O)c4ccc5c(c4)OCO5)ccc3O[C@H]2[C@@H](CO)O1)NCc1ccc(Cl)cc1,-2,-2
CO[C@H]1CN(C)C(=O)c2cc(NC(=O)C3CCOCC3)ccc2OC[C@@H](C)NC[C@@H]1C,7,7
C[C@@H]1CN([C@H](C)CO)C(=O)c2cc(NC(=O)Cc3cn(C)c4ccccc34)ccc2O[C@@H]1CN(C)Cc1ccc2c(c1)OCO2,-2,-2
Cc1ccc(S(=O)(=O)N[C@@H]2CC[C@@H](CCNC(=O)c3ccccc3F)O[C@@H]2CO)cc1,-1,7
CC=Cc1ccc2n(c1=O)C[C@@H]1[C@@H](CO)[C@H](C(=O)NC3Cc4ccccc4C3)N(CC3CCCC3)[C@H]21 (mixture of isomers),-22,-11
Cc1ccc(S(=O)(=O)Nc2cccc3c2O[C@H](CN(C)Cc2ccc(C(F)(F)F)cc2)[C@H](C)CN([C@H](C)CO)C3=O)cc1,u,x
CC(C)(C)[S@](=O)N1Cc2cc(C(=O)N3CCCCC3)nc(-c3cccc(-c4cccc(C#N)c4)c3)c2[C@@H]1CCO,-10,9
C[C@H](CO)N1C[C@H](C)[C@H](CN(C)Cc2ccc(C(=O)O)cc2)OCCCC[C@H](C)Oc2ccc(NC(=O)NC3CCCCC3)cc2C1=O,25,13
C[C@@H]1CN([C@@H](C)CO)C(=O)c2cccc(NS(C)(=O)=O)c2O[C@H]1CN(C)Cc1ccc(-c2ccccc2)cc1,-14,-18
C[C@@H]1CN([C@H](C)CO)C(=O)c2cc(-c3ccc(F)cc3)cnc2O[C@H]1CN(C)C(=O)c1cccnc1,10,-4
C[C@H]1CN([C@@H](C)CO)C(=O)c2cc(C#Cc3cccnc3)cnc2O[C@H]1CN(C)C,20,9
CN1CCCCN2[C@H](C1)[C@H](c1ccc(Br)cc1)[C@@H]2CO,15,1
O=C(CCN1CCCCC1)NCC[C@@H]1CC[C@@H](NC(=O)Nc2ccc(Cl)cc2)[C@H](CO)O1,9,16
C[C@H](NC(=O)C[C@@H]1C[C@H]2c3cc(NC(=O)Nc4ccc(C(F)(F)F)cc4)ccc3O[C@H]2[C@@H](CO)O1)c1ccccc1,3,1
C[C@H](CO)N1C[C@H](C)[C@@H](CN(C)C(=O)Nc2cccc3ccccc23)OCCCC[C@H](C)Oc2ccc(NC(=O)Nc3ccc(C(F)(F)F)cc3)cc2C1=O,23,16
CN(C)C(=O)c1cccc(-c2ccc3n(c2=O)C[C@H]2[C@H](CO)[C@@H](C(=O)NCC(F)(F)F)[C@@H]3N2C)c1,-3,4
O=S(=O)(c1cccs1)N1CCCCN2[C@H](CO)[C@H](c3ccc(C4=CCCC4)cc3)[C@@H]2C1,9,1
C[C@H]1CN([C@@H](C)CO)C(=O)Cc2cc(NC(=O)CCCN(C)C)ccc2O[C@@H]1CN(C)S(=O)(=O)c1ccccc1,15,13
Cc1noc(C)c1NC(=O)N(C)C[C@@H]1Oc2c(NC(=O)Nc3ccc4c(c3)OCO4)cccc2C(=O)N([C@H](C)CO)C[C@@H]1C,3,1
CCS(=O)(=O)Nc1ccc2c(c1)C(=O)N(C)[C@H]1CC[C@@H](CC(=O)NCCCN3CCOCC3)O[C@H]1CO2,9,6
N#Cc1ccc(-c2ccc([C@@H]3[C@H]4CN(C(=O)Cc5ccccc5)CCCCN4[C@H]3CO)cc2)cc1,-25,-28
CC(=O)N1[C@H](CO)[C@@H]2c3ccccc3N(S(=O)(=O)c3cccc(C)c3)C[C@@H]21,-9,4
C/C=C/c1ccc([C@@H]2[C@H]3CN(CCC(F)(F)F)CCCCN3[C@H]2CO)cc1,-6,-3
O=C(NCC[C@@H]1CC[C@@H](NS(=O)(=O)c2cccc(Cl)c2)[C@@H](CO)O1)c1cnccn1,7,8
C[C@@H]1CN([C@@H](C)CO)C(=O)Cc2cc(NC(=O)Nc3ccc(C(F)(F)F)cc3)ccc2O[C@@H]1CN(C)Cc1ccc(Cl)c(Cl)c1,-23,-18
SMILES,Vaccinia stage,Vaccinia stage Venus
CCNC(=O)C[C@H]1CC[C@@H]2[C@H](COc3ccc(NC(=O)c4ccc5c(c4)OCO5)cc3C(=O)N2C)O1,13,12
Cc1ccc(S(=O)(=O)N(C)C[C@H]2Oc3ccc(NS(C)(=O)=O)cc3CC(=O)N([C@@H](C)CO)C[C@@H]2C)cc1,13,5
O=C(C[C@@H]1C[C@H]2c3cc(NS(=O)(=O)c4ccc(F)cc4)ccc3O[C@H]2[C@@H](CO)O1)NCCN1CCCCC1,6,12
C[C@@H]1CN([C@@H](C)CO)C(=O)c2cc(-c3cccc(C(=O)N(C)C)c3)cnc2O[C@@H]1CN(C)S(=O)(=O)c1cccc(F)c1,13,15
COC(=O)C[C@@H]1CC[C@H]2[C@H](COc3ccc(NC(=O)Nc4c(C)noc4C)cc3C(=O)N2C)O1,18,8
COc1ccc(S(=O)(=O)Nc2cccc3c2O[C@@H](CN(C)S(=O)(=O)c2ccc(Cl)cc2)[C@H](C)CN([C@@H](C)CO)C3=O)cc1,8,10
O=C(C[C@@H]1CC[C@@H]2[C@H](COC[C@@H](O)CN2S(=O)(=O)c2ccc(Cl)cc2)O1)N[C@@H]1CCN(Cc2ccccc2)C1,-11,-3
COc1ccc(S(=O)(=O)Nc2ccc3c(c2)C(=O)N([C@H](C)CO)C[C@@H](C)[C@H](CN(C)S(=O)(=O)c2ccc(C)cc2)OCCCC[C@H](C)O3)cc1,-35,-29
COc1ccc(-c2ccc(C3[C@H]4CNC[C@@H]3N4Cc3cc(OC)cc(OC)c3)cc2)cc1 (stereo partly drawn),-10&-4,-3&-1
C[C@H](CO)N1C[C@H](C)[C@H](CN(C)C(=O)NC2CCCCC2)Oc2c(NS(=O)(=O)c3cn(C)cn3)cccc2C1=O,13,9
CCCNC(=O)C[C@H]1CC[C@H]2[C@H](COc3ccc(NS(=O)(=O)CC)cc3C(=O)N2C)O1,1,0
COc1ccc2c3c(n(C)c2c1)[C@@H](CO)N(C(=O)C1CCC1)CC31CCN(C(=O)Nc2cccc(F)c2)CC1,-23,-17
Cc1noc(C)c1NC(=O)N(C)C[C@@H]1Oc2c(NC(=O)c3ccncc3)cccc2C(=O)N([C@@H](C)CO)C[C@@H]1C,1,2
O=C(Nc1ccc(Cl)cc1)N1C[C@H]2[C@@H](c3ccccc31)[C@@H](CO)N2C(=O)C1CC1,0,0
COc1ccc(NC(=O)N(C)C[C@H]2OCCCC[C@@H](C)Oc3ccc(NS(C)(=O)=O)cc3C(=O)N([C@H](C)CO)C[C@H]2C)cc1,31,18
COCC(=O)Nc1ccc2c(c1)[C@@H]1C[C@@H](CC(=O)NCc3cccc(F)c3)O[C@H](CO)[C@@H]1O2,-5,-4
CN1c2ccc(Br)cc2[C@@H]2[C@@H](CCN2S(=O)(=O)c2cccc(F)c2)[C@@H]1CO,u,x
N#Cc1cccc(-c2ccc(C3[C@@H]4CN(C(=O)Nc5ccccc5)C[C@H]3N4)cc2)c1 (stereo partly drawn),-9,-15
O=C(C[C@@H]1C=C[C@@H](NC(=O)C2CCC2)[C@H](CO)O1)NCCCN1CCOCC1,-7,-5
C[C@@H]1CN([C@H](C)CO)C(=O)c2cc(-c3cccc(F)c3)cnc2O[C@H]1CN(C)C(=O)c1cccc(F)c1,-8,-8
COc1ccc(S(=O)(=O)Nc2ccc3c(c2)[C@@H]2C[C@H](CC(=O)NCC4CC4)O[C@@H](CO)[C@@H]2O3)cc1,-15,-18
CC(C)NC(=O)N(C)C[C@@H]1Oc2c(NS(=O)(=O)c3cn(C)cn3)cccc2C(=O)N([C@@H](C)CO)C[C@H]1C,14,10
CCCC(=O)N1C[C@H]2[C@@H](c3ccccc31)[C@@H](CO)N2C(=O)Nc1ccccc1,10,5
C[C@@H]1CN([C@H](C)CO)C(=O)c2cc(NC(=O)Nc3ccc(F)cc3)ccc2O[C@@H]1CN(C)C(=O)Nc1ccccc1,14,14

# Quoted from the listing for reference:
SMILES,Vaccinia stage,Vaccinia stage Venus
Cc1noc(C)c1NC(=O)N(C)C[C@@H]1Oc2c(NC(=O)c3ccncc3)cccc2C(=O)N([C@@H](C)CO)C[C@@H]1C,1,2
O=C(Nc1ccc(Cl)cc1)N1C[C@H]2[C@@H](c3ccccc31)[C@@H](CO)N2C(=O)C1CC1,0,0
COc1ccc(NC(=O)N(C)C[C@H]2OCCCC[C@@H](C)Oc3ccc(NS(C)(=O)=O)cc3C(=O)N([C@H](C)CO)C[C@H]2C)cc1,31,18
COCC(=O)Nc1ccc2c(c1)[C@@H]1C[C@@H](CC(=O)NCc3cccc(F)c3)O[C@H](CO)[C@@H]1O2,-5,-4
CN1c2ccc(Br)cc2[C@@H]2[C@@H](CCN2S(=O)(=O)c2cccc(F)c2)[C@@H]1CO,u,x
N#Cc1cccc(-c2ccc(C3[C@@H]4CN(C(=O)Nc5ccccc5)C[C@H]3N4)cc2)c1 (stereo partly drawn),-9,-15
O=C(C[C@@H]1C=C[C@@H](NC(=O)C2CCC2)[C@H](CO)O1)NCCCN1CCOCC1,-7,-5
C[C@@H]1CN([C@H](C)CO)C(=O)c2cc(-c3cccc(F)c3)cnc2O[C@H]1CN(C)C(=O)c1cccc(F)c1,-8,-8
COc1ccc(S(=O)(=O)Nc2ccc3c(c2)[C@@H]2C[C@H](CC(=O)NCC4CC4)O[C@@H](CO)[C@@H]2O3)cc1,-15,-18
CC(C)NC(=O)N(C)C[C@@H]1Oc2c(NS(=O)(=O)c3cn(C)cn3)cccc2C(=O)N([C@@H](C)CO)C[C@H]1C,14,10
CCCC(=O)N1C[C@H]2[C@@H](c3ccccc31)[C@@H](CO)N2C(=O)Nc1ccccc1,10,5
C[C@@H]1CN([C@H](C)CO)C(=O)c2cc(NC(=O)Nc3ccc(F)cc3)ccc2O[C@@H]1CN(C)C(=O)Nc1ccccc1,14,14

# Screening results deposited in PubChem by Broad Institute.
